Measles inh: inhibitors of measles virus growth in infected cells | AID 745 | 33,000 compounds, 0.1% hits | infected Vero cells, GFP fluorescence, 64 h; stronger effect = lower value | z-score (concentration not given with the values);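 active means z-score under -3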;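 further: score is relative to mean and SD of the compound wells of a plate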
The depositor's hits bear a star. Only part of the results is shown; count on the stated rates, not on these rows.

Structure | Measles inh
COCCN1C(=O)c2ccccc2C(C(=O)Nc2ccc(C)c(F)c2)C1c1ccc(F)cc1 (centres undefined) | -0.37
O=C(CCc1nc(-c2ccccc2F)no1)NC1CC1 | 1.2
O=C(NC1CCCCCC1)c1ccc2nc3ccccc3c(=O)n2c1 | 0.74
S=c1nc(NCCc2ccc(Cl)cc2)c2ccccc2[nH]1 | -0.72
CC(C)(C)n1cnc2cc(NCc3ccccc3O)ccc21 | -1
CSc1sc(SC)c(C[n+]2ccccc2)c1C[n+]1ccccc1 | 1.2
O=C(c1cccc(Cl)c1)N1CCN(c2ccc(F)cc2)CC1 | -0.14
CCOC(=O)CSc1nc2c(sc3ccccc32)c(=O)n1-c1ccc(C)cc1 | -0.83
CCc1ccc(NC2=C(Cl)C(=O)N(c3cccc(C)c3C)C2=O)cc1 | 1.1
COc1ccc(CNC(=O)c2cnc(Nc3ccccc3OC)c3ccccc23)cc1 | 0.19
Cc1ccc2[nH]cc(CCNC(=O)c3ccccc3)c2c1 | -0.37
O=S(=O)(c1ccccc1)c1ccc(S(=O)(=O)N2CCOCC2)cc1 | -0.28
CCCCCN1C2=C(C(=O)CC(C)(C)C2)C(c2cccc(Cl)c2)C2=C1CC(C)(C)CC2=O | -0.45
CN(C)S(=O)(=O)c1ccc(C(=O)N=c2sc3cc(S(C)(=O)=O)ccc3n2C)cc1 | 0.87
CCCCN(CC)S(=O)(=O)c1ccc2c(c1)CCN2C(=O)C1CC1 | -0.35
O=C1C(Nc2cccc(Cl)c2)=C(N2CCCCC2)C(=O)c2ccccc21 | -0.77

Three entries drawn at random from the list so far:
Structure | Measles inh
CN(C)S(=O)(=O)c1ccc(C(=O)N=c2sc3cc(S(C)(=O)=O)ccc3n2C)cc1 | 0.87
O=S(=O)(c1ccccc1)c1ccc(S(=O)(=O)N2CCOCC2)cc1 | -0.28
O=C(CCc1nc(-c2ccccc2F)no1)NC1CC1 | 1.2

(more compounds)
Structure | Measles inh
CCn1cc(C(=O)NCCCN2CCCCCC2)c2cc(OC)c(OC)cc2c1=O | -0.6
O=C(CSc1ccccc1C(=O)O)Nc1cccc(C(F)(F)F)c1 | 0.4
CC(C)(C)n1nc2c(c1NC(=O)c1ccc(F)cc1)CSC2 | 2
O=C(CN1CCN(S(=O)(=O)c2cccc([N+](=O)[O-])c2)CC1)Nc1cc(C(F)(F)F)ccc1Cl | -0.33
CCOC(=O)C1=C(C)NC2=C(C(=O)CCC2)C1c1ccccc1Cl (centres undefined) | -0.29
COc1cc(Br)c(C2Nc3ccccc3NC3=C2C(=O)CC(c2cccs2)C3)cc1OC (centres undefined) | 0.61
Cc1ccc(Oc2ccc3c(c2)C(=O)N(c2cccc4ncccc24)C3=O)cc1C | 0.06
CCOc1ccc(S(=O)(=O)n2nc(C)cc2C)c2ccccc12 | -0.93
COc1cc2nc(COc3ccccc3)oc(=O)c2cc1OC | 0.67
Cc1cc(C(=O)Nc2ccc(N(C)C)cc2)c(C)o1 | -0.3
COC(=O)C1=NN(c2ccc(OC)cc2)C2(Nc3ccccc3S2)S1 (centres undefined) | -0.35
Cc1c(C(=O)Nc2ccc3c(c2)OCO3)sc2ncn(Cc3cccc(F)c3)c(=O)c12 | 0.26
Cc1cc(Cl)ccc1OCC(=O)Nc1ccc2c(c1)C(=O)c1ccccc1C2=O | -0.24
Cc1ccc2c(=O)c(C3NC(C(=O)O)Cc4c3[nH]c3ccccc43)coc2c1 (centres undefined) | 2.4
COc1cc(SC)ccc1C(=O)NCC1CCCO1 (centres undefined) | 0.54
Cc1ccccc1NC(=O)Cn1c(=O)sc2ccccc21 | -0.4
Cc1ccc(C2CC(c3ccc(Br)cc3)=NN2S(C)(=O)=O)cc1 (centres undefined) | 0.95
COc1ccc(OC)c(C2N(Cc3ccc(C)cc3)CCCN2Cc2ccc(F)cc2)c1 (centres undefined) | -0.61
COCCNC(=O)C1c2cc(OC)c(OC)cc2C(=O)N(C)C1c1ccc(OC)cc1 (centres undefined) | -0.8
CCCn1cnc2sc(C(=O)Oc3ccc(OCC)cc3)c(C)c2c1=O | -1.3
O=C(CSc1nc2c(sc(=S)n2Cc2ccco2)c(=O)n1-c1ccccc1)N1CCN(c2ccccc2)CC1 | -0.6
COc1ccc2c(c1)c(=O)oc1cc(OCc3cc(C(=O)O)oc3C)ccc12 | 0.41
COc1ccc(C2CC(C(F)(F)F)n3nc(C(=O)NCCCN4CCOCC4)c(Cl)c3N2)cc1OC (centres undefined) | 1.9
COC(=O)c1ccccc1N1C(=O)C2C3CC(C(Br)C3Br)C2C1=O (centres undefined) | -0.18
COc1ccc(NC(=O)c2ccccc2)cc1 | 0.53
O=C(NCCCN1CCOCC1)c1ccc2nc(-c3cccs3)c(-c3cccs3)nc2c1 | -0.87
COc1ccc(NC(=O)c2cc3c(CO)cnc(C)c3oc2=Nc2cc(C)cc(C)c2)cc1 | -0.11
CCN(CC)c1nc(C)nc2sc(C(=O)Nc3cc(C)ccc3OC)c(C)c12 | -0.78
Cc1ccc(Cn2c(=O)n(-c3cccc(C(F)(F)F)c3)c(=O)c3sccc32)cc1 | -0.64
O=C(O)CCCN(Cc1cccc(Br)c1)S(=O)(=O)c1ccc(Br)cc1 | 1.1
CC(C(=O)O)N1C(=O)C2C3CCC(C3)C2C1=O (centres undefined) | -0.03
COC(=O)c1ccc(N2C(=O)c3ccc(C(=O)Oc4ccccc4)cc3C2=O)cc1 | 0.72

Grouped by structure, the entries above containing bromine (four)
Structure | Measles inh
COc1cc(Br)c(C2Nc3ccccc3NC3=C2C(=O)CC(c2cccs2)C3)cc1OC (centres undefined) | 0.61
Cc1ccc(C2CC(c3ccc(Br)cc3)=NN2S(C)(=O)=O)cc1 (centres undefined) | 0.95
COC(=O)c1ccccc1N1C(=O)C2C3CC(C(Br)C3Br)C2C1=O (centres undefined) | -0.18
O=C(O)CCCN(Cc1cccc(Br)c1)S(=O)(=O)c1ccc(Br)cc1 | 1.1

Carrying on.
Structure | Measles inh
CCOc1cccc2cc(-c3nc(-c4ccc(Cl)cc4)c(C)s3)c(=O)oc12 | -0.22
COc1cccc(NC(=O)Cn2c(=O)n(Cc3ccccc3)c(=O)c3c4c(sc32)CCCC4)c1 | 0.83
Cc1cc(C)c(CNC(=O)c2ccc(Cl)cc2)c(=S)[nH]1 | -1.2
COCCOC(=O)C1=C(C)NC2=C(C(=O)CC(C)(C)C2)C1c1cc(OC)c(OC)c(OC)c1 (centres undefined) | 1.1
CCN(CCNC(=O)C1CCN(S(=O)(=O)CC)CC1)c1ccccc1 | 1.4
O=C1C2CSC(c3ccc(F)cc3)N2C(=S)N1c1ccc(Cl)cc1 (centres undefined) | 1.7
COCCOC(=O)C1=C(C)N=C2SCCC(=O)N2C1c1ccc(C(=O)OC)cc1 (centres undefined) | 0.51
CCc1ccc(-c2nc3cc(NC(=O)COc4ccc(OC)cc4)ccc3o2)cc1 | -0.56
CCOc1ccc(C2C(N3C(=O)c4cccc([N+](=O)[O-])c4C3=O)C(=O)N2c2cc(Cl)ccc2C)cc1 (centres undefined) | -0.54
O=C(c1ccc2c(=O)n(CCc3ccccc3)c(=O)[nH]c2c1)N1CCC(O)(c2cccc(C(F)(F)F)c2)CC1 | -0.75
O=C(NCc1ccc2c(c1)OCO2)N1c2ccccc2Sc2ccccc21 | 0.52
CN1C(=O)c2cc([N+](=O)[O-])cc3cc([N+](=O)[O-])cc(c23)C1=O | -0.29
Cc1onc(-c2ccccc2Cl)c1C(=O)Nc1ccc(Cl)cn1 | -0.18
O=C(CCC1N=C2c3ccccc3N=C(SCc3ccc(F)cc3)N2C1=O)NCc1ccco1 (centres undefined) | -0.37
CCN1C(=O)c2cccc3c(S(=O)(=O)NC4CCCC4)ccc1c23 | -0.48
O=C(COc1ccc(Cl)cc1)NCc1n[nH]c(=S)n1-c1cccc(C(F)(F)F)c1 | 0.5
O=C1CC(NCCc2c[nH]c3ccccc23)C(=O)N1c1ccc(-c2nc3ccccc3o2)cc1 (centres undefined) | -0.97
Cn1c(=N)n(CC(=O)c2ccc(Br)cc2)c2ccccc21 | -0.01
Cc1cc(-n2nc(C)cc2C)nc(NS(=O)(=O)c2ccccc2Cl)n1 | 0.89
Cc1cccc(N2CCN(C(=O)c3cn(C4CCCCC4)c(=O)c4c3c3ccccc3n4C)CC2)c1C | 0.33
O=C(Nc1cc2ccccc2cc1NC(=O)c1ccc(N2C(=O)CCC2=O)cc1)c1ccc(N2C(=O)CCC2=O)cc1 | 0.27
Cc1ccc(-c2cc(C(F)F)nc(S(C)(=O)=O)n2)cc1 | -2.6
CCOC(=O)CNC(=O)c1sc2nc(C)nc(N(C)c3ccc(C(C)C)cc3)c2c1C | -0.93
O=C(CCCCCl)c1ccc2c(c1)Cc1ccccc1-2 | 0

Shown with the structure last: part of the list above
| Measles inh | smiles |
| --- | --- |
| -0.97 | O=C1CC(NCCc2c[nH]c3ccccc23)C(=O)N1c1ccc(-c2nc3ccccc3o2)cc1 (centres undefined) |
| -0.01 | Cn1c(=N)n(CC(=O)c2ccc(Br)cc2)c2ccccc21 |

(list continues)
Structure | Measles inh
CCOc1ccc(-n2nc(C(=O)Nc3ccccc3OCC)c3ccccc3c2=O)cc1 | 1.4
CCN(CC)c1ncnc2sc(C(=O)Nc3cc(Cl)ccc3OC)c(C)c12 | -1.4
COC(=O)c1ccc(NC(=O)c2ccc(OC)c([N+](=O)[O-])c2)cc1 | -0.92
COc1ccc(-c2cc(C(=O)NCCN3CCOCC3)c3cc(C(C)C)ccc3n2)cc1 | -0.84
COc1ccc(C(=O)Nc2nnc(N=Cc3ccc(Br)s3)s2)cc1 | 0.64
CC(C)OC(=O)CSc1nc2c(c(C3CC=CCC3)c1C#N)CCC2 (centres undefined) | -0.12
CCOCCCNC(=O)c1cc(=O)[nH]c2ccc(S(=O)(=O)N3CCCCCC3)cc12 | -0.9
O=C(O)C12C3C4C1C1C2C3C41C(=O)O (centres undefined) | -0.08
CCOC(=O)c1cc2c(=O)n3ccccc3nc2n(CC(C)C)c1=NC(=O)c1cccc([N+](=O)[O-])c1C | 6.2
CCN(c1ccccc1)S(=O)(=O)c1cc(C(=O)Nc2ccccc2Cl)ccc1F | -0.09
O=C(CSc1nc2ccc([N+](=O)[O-])cc2s1)NC1CCCCC1 | -0.16
CCNCC1OCCc2ccccc21 (centres undefined) | -0.06
Cc1ccc(-c2cc(C(F)(F)F)n3ncc(C(=O)N4CCN(c5cccc(Cl)c5)CC4)c3n2)cc1 | -0.3
CCOC(=O)c1nn(-c2ccc(Br)cc2)cc1O | -0.42
COCCCNC(=O)c1cn(C2CCCCC2)c(=O)c2c1c1ccccc1n2C | -1.1
CC(C(=O)c1ccc(-c2ccccc2)cc1)[n+]1ccccc1 (centres undefined) | 2.2
Nc1ccc(S(=O)(=O)NCc2ccco2)cc1 | -0.07
CCOC(=O)C1=C(C)NC2=C(C(=O)CCC2)C1c1cc2c(cc1Br)OCO2 (centres undefined) | 0.34
CCOc1cc(Br)c(C2C(C(=O)OC)=C(C)NC3=C2C(=O)c2ccccc23)cc1OCC (centres undefined) | -0.64
COc1ccc(C(=O)c2cccc(C(=O)c3ccc(OC)c(C)c3)c2)cc1C | -0.03
Cc1ccc(-c2csc(Cc3nc(-c4cc5ccccc5oc4=O)cs3)n2)cc1 | -0.08
CC(=O)Oc1ccc(C(=O)Nc2nc3ccc(N)cc3s2)cc1 | 0.28
COc1cccc(C(=O)Nc2ccc(-c3nc4ccccc4o3)cc2)c1 | -0.75
Cc1cc(=O)[nH]c(Nc2ccccc2)n1 | -0.03
Nc1nnc(SCC(=O)Nc2cccc(F)c2)s1 | 2.6
CCOC(=O)c1cnc2c(C)cccc2c1Nc1ccc(OC)cc1OC | -0.48
Cc1ccccc1CSC1=NCCN1C(=O)C1CC1 | -2.3
COc1ccccc1CNC(=O)c1sc2nc(C)nc(N3CCCCC3)c2c1C | -0.71
CC(=O)NCc1cc(C)ccc1C | 0.4
CCSc1nnc(-c2ccc(Cl)cc2)c2ccccc12 | -1.1
COc1ccccc1NC(=O)c1scc2c1CCCC2 | -0.52
Cc1cccc(C(=O)Nc2sc3c(c2C(N)=O)CCC(C(C)(C)C)C3)c1 (centres undefined) | -0.46
COc1cc(S(=O)(=O)NCCC23CC4CC(CC(C4)C2)C3)c(C)cc1C | 0.46
CCN(Cc1ccccc1)S(=O)(=O)c1ccc(F)c(C(=O)Nc2cc(C)ccc2OC)c1 | 0.58
COc1ccc2cc3cc(C(=O)Nc4ccc(C)c(F)c4)oc3nc2c1 | -1.1
C=CCOC(=O)C1=C(C)NC(=O)NC1c1ccccc1OCc1ccccc1 (centres undefined) | 1.9
CN(Cc1ccccc1)C(=O)C1CC=CCC1C(=O)N(C)Cc1ccccc1 (centres undefined) | 2
CC(C)CC(=O)Nc1c2c(nn1-c1cccc(Cl)c1)CS(=O)(=O)C2 | 1
CCCNC(=O)c1cc(S(=O)(=O)N2CCc3ccccc32)ccc1F | 1.3
O=C(CCC1Nc2c3ccccc3nc(=S)n2C1=O)NCc1ccc(F)cc1 (centres undefined) | 0.43
COc1ccc(CC(=O)NCc2ccco2)cc1 | 1.4
Cc1cc(C)nc(SC=Cc2ccccc2)n1 | -1.1
Cc1ccc(S(=O)(=O)Nc2cc(C(=O)N3CCN(c4ccccc4)CC3)ccc2N2CCCCC2)cc1 | -0.04
CC1NC(C)(C)Cc2c1ccc1ccccc21 (centres undefined) | -1.7
COc1ccc([N+](=O)[O-])cc1NC(=O)c1ccc(-c2ccccc2)cc1 | -0.9
COc1cc(NC(=O)C(=O)c2ccccc2NC(C)=O)cc(OC)c1OC | -0.6
CCOc1ccccc1Nc1nnc(-c2cc3cc(OC)ccc3oc2=O)s1 | -0.15
CC1=C(C(=O)Nc2ccccn2)C(c2ccccc2Cl)NC(=O)N1 (centres undefined) | 0.89
O=C(Nc1ccccc1[N+](=O)[O-])c1cccs1 | -0.99
Cc1ccc(Nc2ncc(C(=O)N3CCN(c4ccccc4)CC3)c3ccccc23)cc1Cl | 0.41
Cc1cc(N2CCOCC2)nc(SCC(=O)c2ccccc2)n1 | -0.15
CCCSc1nc2sc3c(c2c(=O)n1-c1ccccc1)CCC3 | -0.24
